Vaccinia mCherry – vaccinia inhibition (mCherry reporter); 310,000 tested, 0.63% active; Vaccinia virus mCherry reporter infection, fluorescence; about a quarter of the inactives have no number; Potency, µM (top dose mostly 36.5 µM), inactives show at the top dose activity change, negative = inhibition, hits mostly inhibitors; active = well fitted inhibition curve with a large enough effect; inconclusive = small, poorly fitted or top-dose-only effect; inactive = no such curve, though single readings can be large or run the other way; tested in A549 cells; also: nearly all actives have a fitted effect of over 35% in size; inactives centre near -10
VACV Venus inh – vaccinia inhibition (Venus reporter) | Vaccinia virus Venus reporter expression, fluorescence | Potency, µM (series often up to 36.5 µM), for the others: top-dose activity change, negative = inhibition, most hits filed as inhibitors | 330,000 tested, 0.46% active | AID 720580; active means well fitted inhibition curve with a large enough effect; inconclusive means small, poorly fitted or top-dose-only effect; inactive means no such curve, though single readings can be large or run the other way; tested in A549 cells; also: nearly all actives have a fitted effect of over 30% in size; inactives centre near -10
Starred values were filed as active, the others as inactive; i = inactive; u = inconclusive; x = not tested or not shown; & = joins results of further samples; [ ] = remark or other dose. % is scaled to controls: 0 for no effect and ±100 for the full control effect; potency is read from the fitted curve at half-maximal effect.

SMILES	Vaccinia mCherry	VACV Venus inh
Cc1onc(-c2ccc(Cl)cc2)c1-c1ccnc(SCC(=O)Nc2cc(Cl)cc(Cl)c2)n1	-6%	-5%
C=CCn1c(SCC(=O)c2ccc(CNC(C)=O)o2)nc2ccccc2c1=O	x	1.3µM*
COc1ccc(C(c2nnnn2-c2ccc(OC)cc2)N2CCC3(CC2)C(=O)NCN3c2ccccc2)cc1 (configuration not stated)	1%	-27%
CC(=O)N1c2ccc(S(=O)(=O)NCC3CCC(C(=O)Nc4cc(C)ccc4C)CC3)cc2CC1C (configuration not stated)	-8%	-29%
NC(=O)CSc1ncc(-c2ccc([N+](=O)[O-])cc2)[nH]1	i	-9%
Cc1ccc(NC(=O)CN2CCC(NC(=O)C3CCCCC3)CC2)c(Br)c1	-15%	-12%
Cc1cc(C(=O)N(C)Cc2ccc(Br)cc2)no1	-22%	-19%
NC1(C(=O)O)CC1	-7%&-6%	-12%&-14%
O=C1C=CC2C3C(=O)N(c4ccccc4)C(=O)C3C1N2Cc1ccccc1 (configuration not stated)	28µM*	u
COc1ccc2[nH]c3c(c2c1)CCN1C(=O)C(CC(=O)NCc2ccc(OC)c(OC)c2)C[C@H](C(=O)N2CCOCC2)[C@@]31CCC1CCCC1 (some centres not stated)	i	-18%
COc1ccc(-c2cc(C(=O)NCC3CCCO3)c3ccccc3n2)c(OC)c1 (configuration not stated)	-9%	-4%
COc1ccc(CCNC(=O)C2CC(c3cccc(F)c3)=NO2)cc1 (configuration not stated)	i	-9%
NNC(=O)c1cnn(-c2ccccc2)c1-n1cccc1	-9%	-15%
Cc1ccc(NC(=O)COc2cccc3ccc(C)nc23)c(Br)c1	-11%	-21%
Cc1c(NC(=O)C(C)OC(=O)c2c3c(nc4ccccc24)CCC(C)C3)c(=O)n(-c2ccccc2)n1C (configuration not stated)	28%	5%
CCCCCCCCCCCCCCCCOC[C@@H](COP(=O)([O-])OCC[N+](C)(C)C)OC(C)=O	-1%[3.33 µM]	-9%[3.33 µM]
Cc1ccc2c(c1)C1CN(C)CCC1N2C(=O)c1ccccc1NS(=O)(=O)c1ccc(F)cc1C (configuration not stated)	i	-6%
CN(C)Cc1ccccc1C1(O)c2ccccc2CSc2ccccc21 (configuration not stated)	x	-21%
CN1CCCC(OC(=O)c2cccc(Cl)c2)C1 (configuration not stated)	-12%	4%
CCC(=O)Nc1ccc2c(c1)Cc1cc([N+](=O)[O-])ccc1-2	i	-4%
Cc1nc(C)c(-c2ccc(SCC(=O)Nc3cccc(C)c3C)nn2)s1	-2%	-12%
O=C(O)c1cccc(S(=O)(=O)N2Cc3ccccc3C2)c1	-9%[1.46 µM]	-15%
CC(=O)Nc1ccc(-c2nnn(CC(=O)Nc3ccc4c(c3)OCO4)n2)cc1Cl	i	-10%
CC(=O)c1cn(N(C)c2ncc(C(F)(F)F)cc2Cl)c(=O)[nH]c1=O	-15%	-8%
COc1cccc(/C=C2\SC(=S)N(c3cccnc3)C2=O)c1OC	-10%	-4%
O=C(NCc1cccnc1)c1ccc(COc2ccccc2Br)o1	-2%	0%
c1ccc(-c2nc3c4ccccc4ccn3c2Cc2ccsc2)cc1	3%	10%
COc1ccccc1CN(Cc1nc2ccccc2c(=O)[nH]1)S(=O)(=O)c1ccc2ccccc2c1	u	u
O=C(c1ccc2snnc2c1)N1CCCCC1	-12%	-10%
OCCSc1c(F)c(SCCO)c(SCCO)c(F)c1SCCO	i	-3%
CN1/C(=C\C=C2C(=O)NC(=S)NC2=O)C(C)(C)c2ccccc21	i	129%[activator]
Cc1cccc(NC(=O)C(NS(=O)(=O)c2cccc3nsnc23)c2ccccc2)c1C (configuration not stated)	-6%	0%
Cc1nc(-c2ccc(NC(=O)c3ccccc3Br)cc2)cs1	-18%	u
Cc1ccc(/C(N)=N/OC(=O)c2ccc(Cl)cc2Cl)cc1	i	-10%
c1ccc(Cn2c3ccccc3c3nnc(SCCN4CCCCC4)nc32)cc1	-5%	-2%
COc1ccc(C(=O)C[n+]2ccc3ccccc3c2C)cc1	-13%[7.34 µM]	-4%[7.34 µM]
COC(=O)[C@@H](NC(=O)c1ccc2c(c1)S(=O)(=O)c1ccccc1C2=O)C(C)C	-7%	-6%
CC1CC(C)CN(CCCNC(=O)C2CCCN(c3nnc(N4CCCC4=O)s3)C2)C1 (configuration not stated)	-27%[1.46 µM]	-9%
O=C(NCCc1csc2nc(-c3ccccc3F)nn12)c1ccco1	-12%	3%
CCc1ccc(OCC(=O)Nc2ccc(S(=O)(=O)N3CCOCC3)cc2)cc1	-6%	-20%
CCN(c1ccccc1)S(=O)(=O)c1ccc(Cl)c(C(=O)Nc2ccncc2)c1	-17%	-18%
Cc1cc2c3c(c1)C(C)CC(C)(C)N3C(=O)C2=O (configuration not stated)	-4%	-14%
COC(=O)c1ccccc1NC(=O)CSc1nnc(-c2ccc(OC)cc2)n1C	i	-2%
O=C(Nc1cccc(F)c1)C1CCCN(S(=O)(=O)c2ccccc2)C1 (configuration not stated)	u	-23%
COc1ccc(S(=O)(=O)Nc2ccccc2C(=O)NN2CCOCC2)cc1OC	-6%	-28%
COC(=O)C1=C(c2ccc(-c3ccccc3)c(F)c2)C[C@@H]2CC[C@H]1N2C(=O)NCCOc1ccccc1Cl	u	u
N#CCCn1cc(C=O)c(-c2cccs2)n1	8%	11%
O=C(CCN1C(=O)/C(=C/c2ccccc2Cl)SC1=S)NC1CCCC1	-9%	-10%
O=c1c2cc(Br)ccc2[nH]c(=S)n1Cc1ccccc1	i	-13%
Cc1ccccc1Cc1c(C)nc2nc(SCC(=O)N(C)c3ccccc3)nn2c1C	-15%	-9%
CCc1nc2c(OCc3ccc(Cl)cc3)cccn2c1N(C)C(=O)c1ccncc1	0%	-9%
CCOC(=O)N1CCC(NC(=O)CCc2nc(C3=CCN(C)CC3)no2)CC1	-7%	-10%&-9%
Cc1noc(/C=C/N(C)C)c1S(=O)(=O)N1CCCC(C(=O)Nc2ccc3c(c2)OCO3)C1 (configuration not stated)	u	-20%
COc1ccc(Cl)cc1NC(=O)C1CCCN(S(=O)(=O)c2ccc3c(c2)CCCC(=O)N3)C1 (configuration not stated)	-19%	-9%
CCS(=O)(=O)Nc1cc(C(=O)N2CCC[C@H]2CO)c2c(c1)nc(-c1ccccc1)n2C	-4%	-4%
CC(C)(C)NC(=O)C1CN(S(=O)(=O)c2ccccc2)CCN1S(=O)(=O)c1ccccc1 (configuration not stated)	x	-20%
O=C(COC(=O)CCc1ccccc1)Nc1ccc(F)cc1Cl	-7%	0%
COc1cccc(/C=N/N2CCN(C)CC2)c1	-18%	1%
COc1ccc(NC(=O)CN2C(=O)C(c3ccccc3)=NC23CCC(C)CC3)cc1Cl (configuration not stated)	-16%	-19%
CC(NS(=O)(=O)c1ccc(Br)cc1)C(c1cccs1)N1CCOCC1 (configuration not stated)	i	1%
More records.
SMILES	Vaccinia mCherry	VACV Venus inh
O=S1(=O)c2ccc(Br)cc2N2CCC[C@@H]2CN1C1CC1	-1%	-26%
O=C(NCc1ccc2c(c1)CCN2C(=O)c1ccc(Cl)cc1)c1cccc(F)c1	-14%	-20%
Cc1ccc(OCc2cc(=O)n3c4c(sc3n2)CCCC4)c(C)c1	14%	13%
Cc1ccc(NC(=O)CN2C(=O)CCc3cc(S(=O)(=O)N4CCCCC4)ccc32)cc1N(C)C	-21%	-11%
O=C(NCc1ccccc1Cl)C1CCC(CNS(=O)(=O)c2ccc(Br)s2)CC1 (configuration not stated)	-22%	-24%
CCOC(=O)C1=C(C)N(CCCCCC(=O)O)C(=O)NC1c1ccc([N+](=O)[O-])cc1 (configuration not stated)	i	-7%
CC(=O)Nc1ccc(-c2ccnc3c2CC(C)(C(=O)NCC2CCOCC2)O3)cc1 (configuration not stated)	i	-20%
COc1ccc(/C=C/C(=O)Nc2ccc3nc4c(c(Nc5ccccc5OC)c3c2)CCCC4)cc1	-12%[7.34 µM]	-23%[7.34 µM]
COc1cccc(Nc2nc(C(N)Cc3ccc(Cl)cc3)cs2)n1 (configuration not stated)	u	u
O=C(Nc1ccc(Cl)cn1)c1ccc2nccnc2c1	-14%	5%
CCN1CCN(CCCNC(=O)Cn2nc(C)n3nc(-c4ccccc4)cc3c2=O)CC1	-6%	4%
O=S(=O)(Nc1cccc(Br)c1)c1cccc2nsnc12	-17%	-14%
Cc1cc(NC(=O)C2CC(c3ccc(F)cc3)=NO2)no1 (configuration not stated)	i	-1%
CCN(CC)C(=O)c1ccc(S(=O)(=O)N2CCC(c3nc4ccccc4s3)CC2)cc1	-10%	u
COC(=O)C1=C(C)N(C)C(=O)NC1c1cccc2ccccc12 (configuration not stated)	-6%	-6%
CCNc1c(NS(=O)(=O)c2ccc(OC)cc2)c(=O)oc2ccccc12	-11%	-11%
CN(c1ccc(C(=O)NCC2CCCO2)cc1)S(=O)(=O)c1ccc(Cl)cc1 (configuration not stated)	-11%	-16%
Cc1nn(Cc2ccccc2)c(Cl)c1C(=O)OCC(=O)NC(=O)NC12CC3CC(CC(C3)C1)C2	-24%	u
COc1ccc(N(C(=O)C(C)C)S(=O)(=O)c2cccs2)cc1	-7%	-17%
O=C(CSc1nnc(Cc2ccccc2)o1)c1ccc2c(c1)OCO2	-8%	-9%
CC(C)c1ccc(-c2noc(SCC(=O)N(C)c3ccc(F)cc3)n2)cc1	-12%	-6%
Cc1ccnc(NC(=O)C(C)N2C(=O)c3ccccc3S2(=O)=O)c1 (configuration not stated)	-15%	-7%
CC(=O)c1cccc(N(C(=O)CNC(=O)c2ccco2)C(C(=O)NC2CCCC2)c2ccco2)c1 (configuration not stated)	-11%	3%
COc1ccccc1NC(=O)Cn1c(=O)c(N(C)C)c(N)n(C)c1=O	-8%	-3%
Cc1ccc(C(=O)OCC(=O)NC2CCCc3ccccc32)o1 (configuration not stated)	i	-9%
O=C(NCCc1ccccc1)c1ccc(Cl)c(S(=O)(=O)N2CCOCC2)c1	-17%	-16%
Cc1ccc(N(CCC#N)C(=O)COC(=O)c2cc(C)no2)cc1	-10%	-2%
Cc1ccc(Sc2c(CO)c(-c3ccccc3)nn2C)cc1	u	u
Cc1cc(NC(=O)CCCn2c(C)c3cnn(-c4ccccc4)c(=O)c3c2C)ccc1Br	-14%	-9%
Cn1c(=O)[nH]c(=O)c2c1nc(N/N=C/c1ccncc1)n2Cc1ccc(Cl)cc1	-13%	-10%
Cc1cn([C@H]2C[C@H](O)[C@@H](/C=C/C(=O)NCC(c3ccccc3)c3ccccc3)O2)c(=O)[nH]c1=O	2%	2%
COc1ccc(OCCOC(=O)CNC(=O)c2ccc(F)cc2)cc1	i	-6%
O=S(=O)(c1ccc2c(c1)OCCO2)N1CCN(c2cccc(Cl)c2)CC1	x	-19%
COc1ccc(C(C)=O)cc1COC(=O)c1cc(=O)c2ccccc2o1	-11%	-5%
CCCN(C(=O)c1cc2c(s1)-c1ccccc1OC2)c1ccccc1F	-15%	-7%
COc1ccc(C2C(C(=O)c3ccco3)=C(O)C(=O)N2CCCn2ccnc2)c(OC)c1 (configuration not stated)	i	-11%
O=C(O)C1CC1c1ccc(Br)cc1 (configuration not stated)	-1%	-5%
Cc1cc(C)c(S(=O)(=O)N2CCCCC2)c(C)c1-n1ncnn1	i	-13%
O=C(CCn1c(=O)c2ccccc2n(Cc2ccc(F)cc2Cl)c1=O)NCc1ccc2c(c1)OCO2	-3%	-5%
O=C(/C=C/c1cccc(Br)c1)N1CCN(c2ccccn2)CC1	-3%	-10%
O=C(COC(=O)CCSc1ccc(Cl)cc1)NCc1ccccc1	-8%	-4%
COc1ccc(N(C(=O)c2snc(C(N)=O)c2N)C(C(=O)NCC2CCCO2)c2ccc(C)o2)cc1OC (configuration not stated)	u	-5%
C=CCn1c(SCc2ccc([N+](=O)[O-])cc2)nnc1C(C)NC(=O)c1ccccc1 (configuration not stated)	-4%	-20%
COc1ccc(CNC(=O)Cc2ccc(NC(=O)N3CCSc4ncccc43)cc2)cc1OC	-2%	-9%

Grouped by structure: the compounds so far containing bromine
SMILES	Vaccinia mCherry	VACV Venus inh
Cc1ccc(NC(=O)CN2CCC(NC(=O)C3CCCCC3)CC2)c(Br)c1	-15%	-12%
Cc1cc(C(=O)N(C)Cc2ccc(Br)cc2)no1	-22%	-19%
Cc1ccc(NC(=O)COc2cccc3ccc(C)nc23)c(Br)c1	-11%	-21%
O=C(NCc1cccnc1)c1ccc(COc2ccccc2Br)o1	-2%	0%
Cc1nc(-c2ccc(NC(=O)c3ccccc3Br)cc2)cs1	-18%	u
O=c1c2cc(Br)ccc2[nH]c(=S)n1Cc1ccccc1	i	-13%
CC(NS(=O)(=O)c1ccc(Br)cc1)C(c1cccs1)N1CCOCC1 (configuration not stated)	i	1%
O=S1(=O)c2ccc(Br)cc2N2CCC[C@@H]2CN1C1CC1	-1%	-26%
O=C(NCc1ccccc1Cl)C1CCC(CNS(=O)(=O)c2ccc(Br)s2)CC1 (configuration not stated)	-22%	-24%
O=S(=O)(Nc1cccc(Br)c1)c1cccc2nsnc12	-17%	-14%
Cc1cc(NC(=O)CCCn2c(C)c3cnn(-c4ccccc4)c(=O)c3c2C)ccc1Br	-14%	-9%
O=C(O)C1CC1c1ccc(Br)cc1 (configuration not stated)	-1%	-5%
O=C(/C=C/c1cccc(Br)c1)N1CCN(c2ccccn2)CC1	-3%	-10%
